High-throughput results: PubChem, several laboratories
ALR H2O2 inh: inhibitors of human ALR sulfhydryl oxidase, primary screen, biochemical, H2O2 detection, HRP-luminol luminescence, single point; purified ALR, DTT oxidation; inhibition, % (no concentration beside the values); 290,000 tested, 3.8% active;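 active = mean and each replicate at 75% or more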;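 note: stock transfer was 7.5 nL into about 7.5 µL; 0% = neutral wells and 100% = wells with inactivated enzyme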
Target sequence (P55789 whole entry, looked up): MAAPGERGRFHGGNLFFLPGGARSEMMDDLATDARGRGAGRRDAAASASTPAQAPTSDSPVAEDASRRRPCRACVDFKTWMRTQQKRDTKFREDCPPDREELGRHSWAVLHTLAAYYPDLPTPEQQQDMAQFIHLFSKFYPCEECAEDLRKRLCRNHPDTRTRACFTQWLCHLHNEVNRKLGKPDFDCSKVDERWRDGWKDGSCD
UCH37 DUB inh: inhibitors of human UCH37 deubiquitinase, primary screen, biochemical, Ub-AMC cleavage, fluorescence; purified proteasome/UCH37; 330,000 tested, 0.33% active; inhibition, % (concentration not given with the values); AID 588478, 2011; Ubiquitin carboxyl-terminal hydrolase isozyme L5 (Homo sapiens), Q9Y5K5;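 active = mean of two replicates above 20%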;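 note: 0% = compound-free wells with enzyme and 100% = wells lacking proteasome; stock transfer was 100 nL into about 20 µL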
Target sequence (Q9Y5K5 whole entry, looked up): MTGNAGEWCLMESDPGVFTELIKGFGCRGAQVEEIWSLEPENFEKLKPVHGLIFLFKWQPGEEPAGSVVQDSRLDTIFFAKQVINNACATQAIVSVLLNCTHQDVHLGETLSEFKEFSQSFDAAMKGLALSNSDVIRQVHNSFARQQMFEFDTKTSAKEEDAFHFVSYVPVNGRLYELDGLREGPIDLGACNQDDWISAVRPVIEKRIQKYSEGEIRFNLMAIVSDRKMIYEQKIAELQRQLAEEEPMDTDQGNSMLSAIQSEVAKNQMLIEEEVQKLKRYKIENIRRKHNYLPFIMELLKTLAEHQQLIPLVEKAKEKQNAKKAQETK
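Material: human UCH37 enzyme supplied as purified proteasome complex. Measure: % inhibition of Ub-AMC cleavage fluorescence. Medium: pH 7.4 Tris-HCl (50 mM) with ovalbumin, ATP-MgCl2, DTT. Times: 30 min preincubation with enzyme, 25 min cleavage at room temperature. Detection: AMC fluorescence intensity at 355/460 nm.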
B2AR ag: beta2AR agonists driving receptor internalization, primary screen, cell-based, FAP fluorogen, flow cytometry | Beta-2 adrenergic receptor (Homo sapiens), P07550 | Am2.2-beta2AR cells; reference of the scale not given here | response, % (concentration not given with the values) | 340,000 tested, 0.43% active;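 active = response above a set limit, near 3 SD of response in nonfluorescent compounds, cut at about 42% in these data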;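 note: stock transfer was 100 nL into about 11 µL; a reference agonist was the positive control; negative values mostly stem from fluorescent compounds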
HNF4A DNA FP: change in binding of human HNF4A to DNA, primary screen, biochemical, fluorescence polarization, FITC-DNA; Hepatocyte nuclear factor 4-alpha (Homo sapiens), P41235; 1 h; activity change, % at 10 µM; 360,000 tested, 0.3% active; in the data active = activity change above about 30%, passing the limit was not always enough;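 note: controls were the assay level and a saturating level of protein; the project sought stronger binding though the title names inhibitors; some compounds called inactive have numbers as strong as hits; positive values seem to mean higher polarization but the record does not say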
Ecoli growth: E. coli growth inhibition, primary screen, OD600; Escherichia coli growth, 23 h; hits give low values; OD600 absorbance (test concentration not listed); 330,000 tested, 0.21% active; AID 1053175, 2014;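 active = OD600 absorbance below the run mean of sample wells minus 3.6 SD, in any replicate, cut at about 0.56 in these data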;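 note: stock transfer was 300 nL into about 60 µL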
LANA-H2A inh: blockers of LANA interaction with H2A/H2B – biochemical, FP readout, HTS, primary screen. 320,000 tested, 0.6% active. inhibition, % (test concentration not listed). Protein LANA1 (Human herpesvirus 8 type P (isolate GK18)), Q9QR71. cell-free LANA-H2A/H2B peptide, fluorescence polarization; in the data active = inhibition mostly above about 10%, no sharp cut-off; inactive = mostly below about 6.7%;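 note: stock transfer was 7.5 nL into about 10 µL; 0% = median of vehicle wells and 100% = median of positive control wells; one replicate is shown; the record names a cut of 25% in any replicate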
FGF22 binding: binders of human FGF22 protein, primary screen, FGF22 synaptogenesis inhibitor project, biophysical, thermal shift, single point. calls only at 9.99 µM. 340,000 tested, 1.5% active. AID 651658, 2012. recombinant FGF22 thermal shift, SYPRO orange fluorescence; percent of sucrose octasulfate shift, DMSO zero;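 active = melting point raised past a set limit in the mean and every replicate; three in four hits are not shown here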
Target sequence (Q9HCT0 whole entry, looked up): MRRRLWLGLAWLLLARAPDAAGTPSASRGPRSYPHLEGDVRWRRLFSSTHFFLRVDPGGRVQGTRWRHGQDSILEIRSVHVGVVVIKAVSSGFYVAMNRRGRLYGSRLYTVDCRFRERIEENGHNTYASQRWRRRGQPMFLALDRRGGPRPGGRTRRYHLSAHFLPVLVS
* = called active by the depositor; i = inactive; / = no result given.

The line under a structure holds: ALR H2O2 inh	UCH37 DUB inh	B2AR ag	HNF4A DNA FP	Ecoli growth	LANA-H2A inh	FGF22 binding
O=C(O)CC1Sc2nc3ccccc3n2C1=O (centres undefined)
    -2	0.2	2	0.9	0.74	2.3	/
COc1ccc(C(C#N)N2N=C(C)CC2(C)C)cc1 (centres undefined)
    -1	2.1	15	-5.4	0.73	-11	/
Cc1cc2c(SCC(=O)Nc3ccccc3O)ncnc2s1
    /	/	1	-0.2	/	/	i
COc1ccc(N/C=C/C(=O)c2ccc(Oc3ncccn3)cc2)cc1
    -3	1.5	1	-3.4	/	-8.6	/
CSc1nc2ccccc2c(=O)n1C1CCCCC1
    /	-1.9	2	-2.8	0.67	-0.2	i
Nc1cc(=O)[nH]c(SCC(=O)Nc2ccc(S(=O)(=O)N3CCOCC3)cc2)n1
    32	-2.4	2	4.7	0.67	0.7	i
O=C(COC(=O)c1cc(S(=O)(=O)N2CCOCC2)ccc1F)NCCc1ccc(F)cc1
    -3	-3.0	-6	-0.9	0.65	1.9	i
Cc1ccc(C(=O)N/C(=C/c2ccc(Cl)cc2)C(=O)Nc2cccc(C(=O)O)c2)cc1
    -1	5.1	-4	2.9	0.68	0.5	/
O=C(NCc1ccco1)Nc1ccc2nsnc2c1
    -13	-34	6	0.3	0.67	-6.4	/
Cn1cccc1P(=O)(c1cccn1C)c1cccn1C
    -4	0.9	12	0.4	0.7	3.0	i
CCOC(=O)N1CCN(C(=O)COC(=O)COc2c(C)cc(C)cc2C)CC1
    0	2.1	1	-2.0	0.66	7.5	/
Cc1ccc(SCc2ccc(C(=O)Nc3cccnc3)cc2)cc1
    -5	-0.1	12	1.2	0.7	-1.2	i
O=C(Nc1nnc(SCc2c(Cl)cccc2Cl)s1)C1CC(=O)N(c2ccc3c(c2)OCCO3)C1 (centres undefined)
    -11	3.9	-7	-18	0.69	1.2	i
O=C1CC(c2nc3ccccc3[nH]2)CN1Cc1ccccc1 (centres undefined)
    -9	6.7	-7	2.5	0.72	0.4	i
COC(=O)c1cc(NC(=O)CN2C(=O)CSC2=O)ccc1Cl
    -5	1.1	-2	0.1	0.73	-0.9	/
COC(C[C@H]1O[C@@H]1C(=O)COCc1ccccc1)OC
    /	5.6	/	/	/	2.2	i
Cc1cccc(S(=O)(=O)NNC(=O)c2sc(C)nc2C)c1
    60	3.3	-6	-1.7	0.63	-2.6	i
CC(Oc1cccc(F)c1)c1ccnc2nc(/N=C/N(C)C)nn12 (centres undefined)
    -11	/	-1	2.0	/	5.8	i
COc1ccc(C2NC(=O)N(C)C3=C2C(=O)CC(C)(C)C3)cc1OC (centres undefined)
    -8	1.7	1	0.0	0.73	5.4	i
COc1ccc(N(C(=O)Cn2nnc3ccccc32)C2(C(=O)NC3CCCC3)CCCCC2)cc1
    -4	-0.1	-3	1.6	0.69	0.0	/
Cc1noc(C)c1C(=O)Nc1ccccc1C(=O)NCCc1ccccc1
    -4	1.5	0	0.1	0.69	-4.5	i
COc1ccccc1-c1cc(C(F)(F)F)nc(S(=O)(=O)CCCC(=O)Nc2cccnc2Cl)n1
    /	-19	12	-1.9	0.67	/	i
COC(=O)c1c(C)[nH]c(C(=O)C(C)OC(=O)C2CC(=O)N(c3ccc(C)cc3)C2)c1C (centres undefined)
    -13	1.3	-8	-1.0	0.67	0.5	i
CCn1c(SCC(=O)NCc2ccccc2)nnc1-c1ccccc1O
    -1	6.7	3	1.1	0.66	3.1	i
Cc1nc2ccccn2c1C(=O)NN
    /	1.0	0	0.5	0.71	-4.8	/
O=C(Nc1ccc2c(c1)CCC2)Nc1ccc2c(c1)OCO2
    -3	1.5	-1	-0.2	0.7	0.6	i
Cc1nc([N+](=O)[O-])cn1CCC#N
    /	3.3	3	-0.6	0.67	0.3	i
O=C(O)C1CCCN1c1ncccc1[N+](=O)[O-] (centres undefined)
    -7	8.2	0	-3.6	0.7	-5.4	i
CCOP(=O)(OCC)C(NC(C)=O)C(=O)c1ccccc1 (centres undefined)
    -3	-0.1	-1	7.2	0.66	-1.2	i
COc1ccc(-n2nc3cc(C)c(NC(=O)c4cccnc4)cc3n2)cc1
    2	-4.5	7	0.1	0.76	1.5	/
O=C(/C=C/c1ccc(Br)cc1)N1CCN(c2cccc(C(F)(F)F)c2)CC1
    -6	5.4	-4	1.9	0.7	-5.5	/
CCOC(=O)[C@H]1[C@H]2COc3cc(OC)ccc3[C@@H]2N2C(=O)c3cc(F)ccc3NC(=O)[C@@]12C
    -1	-1.9	5	0.4	/	2.1	i
Cc1ccc(-c2c(C#N)c(N)n3c(nc4ccccc43)c2C#N)cc1
    -6	-32	7	10	0.75	-1.6	/
COc1ccc(OC)c(S(=O)(=O)N2CCc3ccccc3C2)c1
    -12	0.9	4	-1.2	0.69	-0.2	i
O=C1CCCC(O)=C1C=Nc1cccc(C(F)(F)F)c1
    -1	7.4	-10	-4.8	0.63	-7.8	i
Cc1ccc(-n2ncc3c(=O)[nH]c(SCC(=O)N4CCCCC4)nc32)cc1
    /	5.2	-3	2.4	0.71	-1.7	i
Cn1cccc1/C=C1\SC(=O)N(CC(=O)Nc2ccc(Cl)cc2)C1=O
    -3	-1.7	-7	1.4	0.68	5.3	i
Cc1cc(C)c2c(c1)OC(O)(C(F)F)CC2=O (centres undefined)
    1	-0.2	4	0.9	0.72	-0.9	i
COC(=O)c1ccc(N2CCC(C)CC2)c(N)c1
    12	-103	-7	0.9	0.66	-3.3	/
CCCCc1ccc(NC(=S)NCc2cccc(OC)c2)cc1
    8	2.9	-6	0.5	0.68	-3.9	i
CC(=O)c1cccc(S(=O)(=O)N2CCC(C(=O)OC3CCOC3=O)CC2)c1 (centres undefined)
    /	-1.7	2	0.8	0.68	-14	i
O=C(Cc1ccc(Cl)cc1)Nc1ccc(-c2nnc(-c3ccco3)o2)cc1
    -15	-10	13	-2.3	0.7	1.0	/
COCCCn1c2nc3ccccc3nc2c2c(=O)n(CC3CCCO3)cnc21 (centres undefined)
    -3	-446	-15	-0.3	0.68	0.2	/
CC(C)CCN(Cc1ccco1)S(=O)(=O)c1csc(C(N)=O)c1
    4	-1.2	-4	-1.5	0.68	-5.8	i
CC(C)(C)OC(=O)N1CCC[C@H]1C(=O)Nc1ccc(C#N)cc1
    2	6.2	-7	-1.8	0.67	-0.8	i
CN(CC(=O)Nc1cccc(F)c1)C(=O)CCCNC(=O)c1ccc(Cl)cc1
    -2	-2.2	-6	0.6	0.62	4.0	i
CC(=O)c1ccc(NC(=O)CSc2nnc(Cc3cccn3C)n2-c2ccc(F)cc2)cc1
    13	6.3	4	-0.7	0.74	-1.4	i
NC(=O)C1CCN(C(=O)CN2C(=O)c3ccccc3S2(=O)=O)CC1
    4	-3.7	15	-5.0	0.65	1.0	/
CCCc1cc(NCCCN(C)C)n2c(nc3ccccc32)c1C#N
    -35	-482	-6	-4.0	0.68	-3.3	i
c1ccc2c(c1)OCC(c1nn3cnnc3s1)O2 (centres undefined)
    0	1.7	2	-1.2	0.7	-2.0	/

(listing goes on)
The line under a structure holds: ALR H2O2 inh	UCH37 DUB inh	B2AR ag	HNF4A DNA FP	Ecoli growth	LANA-H2A inh	FGF22 binding
COc1ccc(NC(=O)CCc2nc3ccccc3s2)c(OC)c1
    -9	2.9	10	-0.3	0.68	6.4	i
Nc1cc(C(F)(F)F)ccc1Nc1ccccc1
    98*	0.6	-2	1.7	0.7	-4.2	/
CN1CCN(C(=O)c2ccc(CSc3ccc(Cl)cc3)cc2)CC1
    -16	/	0	5.3	/	-1.1	i
Cc1cc(C(=O)NN=C2CCCC2)c2ccccc2n1
    /	3.0	14	2.7	0.68	/	i
O=C(NC12CC3CC(CC(C3)C1)C2)N1CCN(S(=O)(=O)c2ccc(Cl)cc2)CC1
    0	5.2	-12	-4.4	0.69	4.1	/
O=C1c2ccccc2-c2c1c1ccccc1c(=O)n2CCO
    /	/	5	4.0	/	/	i
CCOC(=O)CNC(=O)c1ccc2[nH]c3c(c2c1)CCCC3
    -12	-13	10	-0.2	0.63	3.2	i
CCN(CC)S(=O)(=O)c1cccc(-c2nnc(SCC#N)n2Cc2ccccc2)c1
    -7	0.7	-1	3.1	0.75	-1.5	/
CCCCn1c(SCC(=O)NC(=O)NCc2ccco2)nc2cc(S(N)(=O)=O)ccc21
    1	4.6	24	-6.7	0.7	3.3	/
Cc1ccc2c(c1)C(=O)C(=O)N2c1ccc(Cl)cc1
    4	3.7	2	-4.2	/	-4.2	i
Cc1ccccc1NC(=O)C(=O)NCCCN1CCCC1=O
    -73	/	-3	3.0	/	-0.4	i
Cc1ccc(C)c(OCc2nc(-c3cccnc3)no2)c1
    -5	0.8	-5	-1.1	0.68	-2.9	/
C/C=C(\C)CN1CCC(n2nccc2NC(=O)c2ccc(OC)cc2)CC1
    -1	6.4	-7	-0.8	0.69	-6.1	i
COc1ccc(N2CCN(S(=O)(=O)c3ccc4oc(=O)ccc4c3)CC2)cc1
    /	4.1	-10	-5.7	0.72	7.6	i
Cc1sc(NC(=O)c2ccccc2)c(C(=O)NC(C)C)c1C
    -2	-228	-16	-3.3	0.71	-1.1	i
CCOC(=O)C1CCCN(C(=O)C2CCN(S(=O)(=O)c3cnc[nH]3)CC2)C1 (centres undefined)
    /	-0.1	-2	-0.3	0.66	-0.5	/
O=c1cc(O)n(C2CCCCCC2)c(=O)[nH]1
    -33	10	2	5.3	0.68	-0.8	i
CC1CCc2[nH]c3ccc(C(=O)NCCCOC(C)C)cc3c2C1 (centres undefined)
    -52	-0.7	-5	1.9	0.68	5.9	i
O=C(NC(=S)Nc1nc(-c2ccc([N+](=O)[O-])cc2)cs1)c1ccco1
    63	1.4	-3	14	0.76	-0.8	i
O=c1[nH][nH]cc1C=Nc1ccc(Cl)cc1
    2	3.9	-8	-5.8	0.71	10	i

Taken from above:
ALR H2O2 inh result of Cc1sc(NC(=O)c2ccccc2)c(C(=O)NC(C)C)c1C reads -2
Ecoli growth result of O=c1[nH][nH]cc1C=Nc1ccc(Cl)cc1 reads 0.71

The list continues:
The line under a structure holds: ALR H2O2 inh	UCH37 DUB inh	B2AR ag	HNF4A DNA FP	Ecoli growth	LANA-H2A inh	FGF22 binding
Cc1ccc(S(=O)(=O)CNC(=S)c2cccc(Cl)c2)cc1
    44	3.2	0	1.1	0.7	0.5	/
CCN(Cc1nc2ccccc2c(=O)[nH]1)C(=O)c1cccc(S(=O)(=O)N2CCc3ccccc32)c1
    -6	1.4	-1	1.9	0.64	3.1	i
O=C(N/N=C/c1cccnc1)c1ccc2c(c1)OCCO2
    -3	/	4	-1.8	/	2.0	i
COc1ccc2nc(SC(C)C(=O)NC3(C#N)CCCCC3)[nH]c2c1 (centres undefined)
    /	0.1	0	2.0	0.68	-3.9	i
C/C(CCC1CC(C)OC1=O)=N\NC(N)=S (centres undefined)
    /	/	4	4.3	/	0.4	i
CSc1ccc(/C=C(\C#N)C(=O)NC2CCCCC2)cc1
    17	-34	3	0.2	0.69	-4.0	/
CC(C)c1ccc2nc(SCC(=O)NCC3CCCO3)c(C#N)cc2c1 (centres undefined)
    /	7.4	3	1.0	0.67	-11	i
Cc1ccc(NC(=O)c2ccc3c(c2)NC(=O)CS3)nc1
    6	-2.1	0	3.5	0.59	-4.1	i
Cc1ccc(S(=O)(=O)N2CCCCC2)cc1NC(=O)COC(=O)Cc1cccc2ccccc12
    -1	1.7	9	-0.6	0.66	1.4	/
CC1(C)CCc2nc(SCc3ccccc3)c(C#N)cc2C1
    -6	0.5	-1	-1.3	0.74	-3.1	/

Some of the compounds tested; the hit share may differ from the screen's.
